# Assay outcomes: PubChem, National Center for Advancing Translational Sciences (NCATS)
# VACV Venus inh: vaccinia inhibition (Venus reporter) | Potency, µM (titrated, usually from 36.5 µM), without a hit: at the highest dose activity change, negative = inhibition, hits mostly inhibitors | 330,000 tested, 0.46% active | Vaccinia virus Venus reporter expression, fluorescence; active means well fitted inhibition curve with a large enough effect; inconclusive means small, poorly fitted or top-dose-only effect; inactive means no such curve, though single readings can be large or run the other way; tested in A549 cells; further: nearly all actives have a fitted effect of over 30% in size; inactives centre near -10
# VACV mCherry inh: vaccinia inhibition (mCherry reporter). Vaccinia virus mCherry reporter infection, fluorescence; about a quarter of the inactives have no number. AID 720579. Potency, µM (titrated, usually from 36.5 µM), without a hit: at the highest dose activity change, negative = inhibition, hits mostly inhibitors. 310,000 tested, 0.63% active; active = well fitted inhibition curve with a large enough effect; inconclusive = small, poorly fitted or top-dose-only effect; inactive = no such curve, though single readings can be large or run the other way; tested in A549 cells; further: nearly all actives have a fitted effect of over 35% in size; inactives centre near -10
# Active calls of the source: *; i = inactive; ? = inconclusive; nt = no result given; & = joins results of further samples; [ ] = dose if it differs, or a comment. On the % scale 0 is the no-effect control and ±100 the full control effect; potency means the concentration at half of the fitted maximal effect.
SMILES,VACV Venus inh,VACV mCherry inh
CN(CC(=O)Nc1c(Cl)cccc1Cl)C(=O)CC1Sc2ccccc2NC1=O (stereo not given),-15%,-5%
O=C(NC1CCCCCCC1)c1cccs1,10%,-3%
CCCCOc1ccc(C(=O)NCC(=O)NC2CCC(C)CC2)cc1 (stereo not given),-6%,i
CCOC(=O)C1(Cc2ccc(OC)cc2)CCN(C(=O)c2cc3ccccc3[nH]2)CC1,-28%,i
N#Cc1c2n(c(=S)n(-c3ccc(OC(F)F)cc3)c1=O)CCCCC2,-14%,i
Cn1c(SCC2CCCO2)nnc1-c1cccc([N+](=O)[O-])c1 (stereo not given),-13%,-3%
O=C(O)CCC(=O)NN1C(=O)c2ccccc2NC1c1ccc(F)cc1 (stereo not given),-6%,-5%
Cc1ccc2nc(SCc3nc(-c4ccccc4C)no3)[nH]c2c1,-11%,-20%
O=C(CNC(=O)c1ccc(Cl)cc1)NNC(=O)c1ccc(Br)cc1,-5%,i
CCCNC1(C(N)=O)CCN(Cc2ccccc2)CC1,-15%,i
CCOC(=O)N1CCC(NS(=O)(=O)c2cc3c(cc2Cl)NC(=O)CO3)CC1,?,-13%
CCC(=O)c1ccc(OCC(=O)Nc2nn3cnnc3s2)cc1,-2%,i
CN(C)S(=O)(=O)c1cccc(NC(=O)COC(=O)COc2ccc(Br)cc2)c1,-7%,5%
COc1cc(/C=C/c2nc3ccccc3s2)cc(OC)c1O,215%[activator],9%
COc1cccc(/C=N/NC(=O)c2nnn(-c3nonc3N)c2CN(C)C2CCCCC2)c1,-21%,?
Cc1ccc(C(=O)COC(=O)C(C)N2C(=O)C3C4C=CC(C4)C3C2=O)cc1 (stereo not given),-9%,-16%
C[C@H](CO)N1C[C@H](C)[C@@H](CN(C)C(=O)Nc2ccc3c(c2)OCO3)Oc2ccc(NC(=O)CCN3CCOCC3)cc2C1=O,-5%,?
CC(=O)c1ccc(Cc2ccccc2)cc1,-6%,i
COc1ccc(C(=O)Oc2c(CN3CCOCC3)cc(Cl)c3cccnc23)cc1,?,nt
O=[N+]([O-])c1cc(S(=O)(=O)N2CCOCC2)ccc1OCc1cccc(Cl)c1,-5%,-13%
CCO[C@@H]1OC(C(=O)N2CCN(C)CC2)=C[C@H](C(C)(C)C)[C@H]1CCCO,-18%,-9%
O=C(NNS(=O)(=O)c1ccccc1[N+](=O)[O-])c1cccc([N+](=O)[O-])c1,-4%,-12%
Cc1ccc(C(=O)N2CCn3c(C)ccc3C2C)cc1 (stereo not given),-5%,i
COc1ccc(/C=C2/SC(=S)N(CCC(=O)N3CCN(C)CC3)C2=O)cc1,-25%,-10%
O=C(Cc1ccccc1[N+](=O)[O-])Nc1cccc(S(=O)(=O)NC2=NCCCCC2)c1,-8%,-6%
COc1ccc(S(=O)(=O)N(C)CC(=O)Nc2ccc3c(c2)OCCO3)cc1OC,-15%,nt
CCc1nc(N2CCN(C(=O)c3ccco3)CC2)c2c3c(sc2n1)CCCC3,-25%,-26%
Cc1ccc(O)c(-c2cc(C(F)(F)C(F)F)[nH]n2)c1,?,?
CCCCCCN1C[C@@H](n2cc(-c3ccc(F)cc3)nn2)[C@H](O)C[C@@H]1c1ccccc1,-24%,i
CCOC(=O)c1sc(N2C(=O)c3oc4ccc(F)cc4c(=O)c3C2c2ccc(C)cc2)nc1C (stereo not given),20%,17%
COc1ccc(C(=O)Nc2c(N)nc(SCC(=O)Nc3ccc(NC(C)=O)cc3)[nH]c2=O)cc1,-12%,0%
O=C(Nc1ccc(F)c(Cl)c1)c1ccc2c(Cl)c3c(nc2c1)CCCC3,-12%,-6%
CCCCNc1c(-c2ccc(-c3ccc(OC)cc3)c(OC)c2)nc2ccccn12,?,32µM*
CC1(C)NC(=O)N(CC(O)CN(c2ccccc2)S(=O)(=O)c2ccccc2[N+](=O)[O-])C1=O (stereo not given),-8%,-10%
CCOC(=O)CC1C(=O)NCCN1S(=O)(=O)c1ccc(F)cc1 (stereo not given),-9%,i
Cc1cc(C)n(C(=O)CNC(=O)c2cccc(F)c2)n1,-17%,i
COc1ccc(CC(=O)NNC(=O)c2c(-c3ccccc3Cl)noc2C)cc1OC,-9%,-12%
Cc1ccc(-n2ncc3c(=O)[nH]c(SC(C)C)nc32)cc1,-13%,-18%
Cc1ccc(NC(=O)COC(=O)/C=C/c2ccco2)cc1S(=O)(=O)N(C)C,-3%,i
C[C@@H]1CN(S(=O)C(C)(C)C)[C@@H](CCO)/C1=C\CCO (stereo not given in full),-14%,-14%

# One compound at a time, from the list above:
# CCOC(=O)c1sc(N2C(=O)c3oc4ccc(F)cc4c(=O)c3C2c2ccc(C)cc2)nc1C (stereo not given) is listed with VACV Venus inh: 20%; VACV mCherry inh: 17%
# C[C@@H]1CN(S(=O)C(C)(C)C)[C@@H](CCO)/C1=C\CCO (stereo not given in full) is listed with VACV Venus inh: -14%; VACV mCherry inh: -14%
# O=C(NNS(=O)(=O)c1ccccc1[N+](=O)[O-])c1cccc([N+](=O)[O-])c1 is listed with VACV Venus inh: -4%; VACV mCherry inh: -12%

# Other structures.
SMILES,VACV Venus inh,VACV mCherry inh
CCCCN(CCCC)S(=O)(=O)c1ccc(C(=O)Nc2nnc(CSC)o2)cc1,-10%,-15%
O=C(OCC(=O)N1CCOCC1)c1ccccc1OCc1ccccc1Cl,6%,i
COC(=O)C1(Cc2ccccc2)NC(c2ccc(F)cc2)C2C(=O)N(C)C(=O)C21 (stereo not given),-6%,nt
Cc1cccc2nc(C(F)(F)F)nc(=O)n12,-2%,i
CC(C)C[C@H]1CN=C(Nc2ccccc2)N1CC1CCCC1,-8%,i
COc1ccc2nc(NC(=O)CSc3nc4cccnc4n3C)sc2c1,?,-24%
COc1ccc(-c2c(C)nn3c(-c4ccccc4)cc(C)nc23)cc1OC,?,?
CCOC(=O)NC(C(F)(F)F)(C(F)(F)F)P(=O)(c1ccccc1)c1ccccc1,0%,i
COC(=O)c1ccc(COc2ccc(C(=O)c3ccccc3)cc2)o1,-26%,?
Cc1ccc(/C=C(\C#N)C(=O)Nc2cccc(Cl)c2)o1,-10%,-9%
Cc1ccc(-c2nc(CS(=O)CC(=O)N3CCN(c4ccc(Cl)cc4)CC3)c(C)o2)cc1 (stereo not given),?,-15%
CNC(=O)c1ccc(NC(=O)Cc2ccc(S(=O)(=O)N3CCOCC3)s2)cc1,0%,-6%
CNS(=O)(=O)c1cn(CC(=O)N2CCN(c3cccc(Cl)c3)CC2)cc1S(=O)(=O)NC,-9%,-4%
COc1cc(NC(=O)Cn2nc(C(F)(F)F)c3c2CCCC3)cc(OC)c1OC,?,-21%
O=C(CCSCc1ccccc1Cl)NCc1cccs1,-21%,-18%
COc1ccccc1N1CCN(S(=O)(=O)c2ccc3c(c2)NC(=O)C(C)C(=O)N3)CC1 (stereo not given),-20%,-13%
CC(C)(C)c1ccc(C(=O)N2CCN(c3nc4ccccc4o3)CC2)cc1,-18%,i
COc1cc(Cl)c(CNC[C@H]2O[C@@H](n3ccc(=O)[nH]c3=O)[C@H](O)[C@@H]2O)c(Cl)c1O,-15%,-19%
Cc1c(Cl)c([N+](=O)[O-])nn1CCCC(=O)Nc1cccc(Cl)c1,-8%,-4%
Cc1cc(/C=N/NC(=O)C(=O)NCc2ccccn2)c(C)n1-c1cccc(Br)c1,-14%,-20%

# Another view of part of the listing above.
Cc1ccc(C(=O)N2CCn3c(C)ccc3C2C)cc1 (stereo not given)
  VACV Venus inh = -5%
  VACV mCherry inh = i

COc1ccc(/C=C2/SC(=S)N(CCC(=O)N3CCN(C)CC3)C2=O)cc1
  VACV Venus inh = -25%
  VACV mCherry inh = -10%

O=C(Cc1ccccc1[N+](=O)[O-])Nc1cccc(S(=O)(=O)NC2=NCCCCC2)c1
  VACV Venus inh = -8%
  VACV mCherry inh = -6%

COc1ccc(S(=O)(=O)N(C)CC(=O)Nc2ccc3c(c2)OCCO3)cc1OC
  VACV Venus inh = -15%
  VACV mCherry inh = nt

# (further entries)
SMILES,VACV Venus inh,VACV mCherry inh
Cc1cnc(-c2nnc(N(C)C(=O)c3cccnc3)s2)cn1,-7%,-3%
COc1ccc(NC(=O)CSc2nc3c(c(=O)n2-c2ccc(F)cc2)SCC3)cc1,-22%,-4%
Cc1ccccc1N=Cc1cc2c(cc1[N+](=O)[O-])OCO2,-8%,-13%
C#CCOCCOCCOCCNc1nc(N2CCN(C(=O)[C@H]([C@@H](C)CC)n3cc([C@@H](N)CC(C)C)nn3)CC2)nc(N2CCN(C(=O)[C@H](CCCCN)n3cc([C@@H](N)CO)nn3)CC2)n1,-1%,i
O=C(NNC(=O)c1cccnc1SCc1cccc([N+](=O)[O-])c1)c1ccc(F)cc1,-15%,-10%
CCOC(=O)C(Cc1ccc(O)cc1)NC(=O)c1cc2c(cn1)[nH]c1ccccc12 (stereo not given),-1%,-9%
O=C(NCCc1ccccc1)C(=O)NCC1OCCN1S(=O)(=O)c1ccccc1 (stereo not given),7%,-9%
COc1ccccc1N=c1scc(-c2ccc(S(=O)(=O)N3CCCC3)cc2)n1C,?,-19%[7.34 µM]
CN(C)C(=O)CNc1ccn2nc(-c3cccc(OCCN4CCOCC4)c3)cc2n1,5%,8%
Cc1cc2nnc(SCC(=O)N3C(C)CCCC3C)n2c(N)n1 (stereo not given),-10%,-17%
CCOc1ccc(=O)n(-c2ccccc2)n1,-8%,-9%
Cc1ccc(C2=NC3(CCCC3)N=C2SCC(=O)Nc2ccc3c(c2)OCCO3)cc1,-23%,-26%
Fc1cccc(NC(=S)NCc2ccc(Cl)cc2)c1,-9%,-2%
Cc1cc(C)c(/C=C/c2onc(C)c2S(=O)(=O)N2CCC(C(=O)Nc3cccc(C)c3C)CC2)c(C)c1,-6%[7.34 µM],-11%[7.34 µM]
CCOc1ccc(NC(=S)NN2CCN(C)CC2)cc1,-5%,-15%
O=C(COc1ccc(Cl)cc1)OCC(=O)N1CCCC1,-12%,nt
COc1cccc(C(=O)Nc2nnc(-c3ccc(F)cc3)o2)c1,-12%,-25%
CCCn1nc(Oc2nc(NCC)nc(NC(C)C)n2)ccc1=O,-3%,-6%
O=C(NNS(=O)(=O)c1ccc(Br)cc1)c1csnn1,-8%,i
CN1CCN(S(=O)(=O)c2ccc(N3CCN(C(=O)c4ccccc4)CC3)nc2)CC1,-14%,?
Cc1onc(-c2ccccc2)c1C(=O)NC1CCCCC1C (stereo not given),-5%,-22%
COc1ccc(-n2nnnc2-c2cn(C)nc2C(F)(F)F)cc1,-13%,-13%
Cc1noc(C)c1CSCC(=O)Nc1ccc(Br)cc1Cl,-14%,i
CCN1C[C@@H]2[C@@H]3C(=O)N(C)C(=O)[C@@H]3[C@](Cc3ccccc3)(C1=O)N2C(=O)c1ccc(Cl)cc1,-5%,i
CCn1c(C)nnc1SCC(=O)Nc1ccccc1OC,-3%,-3%
COc1cccc(N2C(=O)C3CCCN3C2c2ccc(Cl)cc2)c1 (stereo not given),3%,2%
O=C(O)c1ccccc1-c1ccc(C=c2sc3nc4cc(Br)cnc4n3c2=O)o1,4%,32%[activator]
CCOc1ccc(C2C(=O)N(C3CCCCCC3)CC(=O)N2Cc2ccc(C)cc2)cc1OC (stereo not given),-9%,-8%
CCCCN(Cc1ccco1)C(=O)c1cc2c(=O)[nH]c3ccc(C)cc3c2s1,?,?
Cn1c2c(c(O)c(-c3ccccc3)c1=O)C(=O)CC(C)(C)C2,-12%,-18%
Cc1cc(C)cc(N(CCC#N)C(=O)COC(=O)CCc2c[nH]c3ccccc23)c1,-7%,-16%
Cc1ccc(CS(=O)(=O)CCC(=O)NCCc2ccccc2)cc1,-21%,-12%
CC(=O)Nc1ccc(C(=O)N2CCCCC2c2cc(C(=O)NC(C)C)no2)cc1 (stereo not given),-2%,6%
CCOC(=O)CSc1nnc(CSc2nc3ccccc3s2)n1C,-12%,i
c1ccc(-n2c(Sc3cnccn3)nnc2-c2cccs2)cc1,-8%,-10%
CCc1ccccc1NC(=O)c1cc(-c2ccco2)on1,-2%,12%
COc1ccccc1N1CCN(C(CNC(=O)C(=O)NCc2ccc(F)cc2)c2cccnc2)CC1 (stereo not given),-25%,-19%
COc1ccc(N2C(=O)CSC2c2cccc(OC)c2OC)cc1 (stereo not given),-1%,-15%
COc1ccc(N2C(=NC(=O)c3ccccc3)SC3CS(=O)(=O)CC32)cc1 (stereo not given),-15%,i
COC(=O)C1=CN(C)C=C(C(=O)OC)C1c1ccc(Cl)cc1Cl,-10%,-12%
COc1ccc(C2C(C(=O)NCCN(C)C)c3cc(OC)c(OC)cc3C(=O)N2C)cc1OC (stereo not given),?,-13%
CCOc1ccc(CCN2C(=O)C(=O)N([C@@H](Cc3ccc(O)cc3)CN3CCC[C@H]3CN3C(=O)C(=O)NC[C@@H]3CC(C)C)C[C@@H]2Cc2ccccc2)cc1,-7%,-11%
CCc1cc(CC)c(/C=N/NC(N)=O)c(CC)c1/C=N/NC(N)=O,-12%,-8%
CCOC(=O)c1c(N)n[nH]c1-c1ccc(OC)cc1,2%,-12%
CC1=C(C(=O)N(C)C)C(c2cccc(Cl)c2)NC(=O)N1 (stereo not given),-15%,nt
COC(=O)C1N[C@@H]([C@@H](NC(=O)COc2ccccc2)C(=O)NCc2ccccc2)SC1(C)C (stereo not given in full),-24%&-15%,-3%
O[C@H]1CN(Cc2cccs2)[C@@H](c2ccccc2)C[C@@H]1n1cc(C2CC2)nn1,-13%,0%

# An unsorted share of the library; about 0.82% have a hit in one of these screens.
